Screening data as filed in PubChem.
SARS PLpro yeast – inhibitors of SARS-CoV papain-like protease in yeast; 330,000 tested, 0.19% active; S. cerevisiae expressing SARS-CoV PLpro, growth rescue; control for the full effect not named in the record; Potency, µM (highest dose often 32.9 µM), inactives show top-dose activity, positive = growth rescue; note: 0% is about no effect; nearly all actives have a fitted effect of over 55% in size; growth read by luminescence after 48 h
RE007 growth inh – less growth of the S. pombe RE007 Vpr strain. S. pombe RE007 Vpr strain, BacTiter-Glo ATP luminescence, 24 h; control for the full effect not named in the record. Potency, µM (titrated, usually from 92.2 µM), without a hit: at the highest dose activity change, negative = less growth. 360,000 tested, 0.21% active; active = well fitted falling curve with a large enough effect; inconclusive = small, poorly fitted or top-dose-only effect; inactive = no such curve, though single readings can be large or run the other way;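 note: % is set by controls: 0 for no effect and ±100 for the full control effect; nearly all actives have a fitted effect of over 50% in size; the assay follows cell death caused by Vpr and the record does not say whether a fall means rescue or toxicity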
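Fission yeast strain RE007, carrying one chromosomally integrated HIV-1 vpr copy, was seeded at OD 0.01 in PMG+AL medium with 23 nL pinned compound. After 24 h at 30 °C and 99% humidity, viability was read by BacTiter-Glo luminescence.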
NS1 inh – influenza NS1 inhibition. S. cerevisiae slowed by influenza A NS1, growth recovery by OD600. AID 2326. Potency, µM (series often up to 46.1 µM), for the others: top-dose activity, positive = more growth. 270,000 tested, 0.4% active; note: actives are rising curves; nearly all actives have a fitted effect of over 50% in size
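In this qHTS, NS1 from influenza A is expressed in budding yeast, where it slows growth. Cells are switched from glucose to 2% galactose medium (pH 6.0, -URA), treated with compound, and growth recovery is read at OD600.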
LASV entry inh – blocks Lassa virus binding to or entry into cells; Lassa virus pseudotype entry inhibition, cell reporter; control for the full effect not named in the record; Potency, µM (top dose mostly 37.9 µM), without a hit: at the highest dose activity change, negative = inhibition, usual class: inhibitors; 300,000 tested, 1.2% active; AID 540256; active means well fitted inhibition curve with a large enough effect; inconclusive means small, poorly fitted or top-dose-only effect, or effect the other way; inactive means flat fitted curve, though single readings scatter; tested in HEK293 cells; note: % is set by controls: 0 for no effect and ±100 for the full control effect; nearly all actives have a fitted effect of over 50% in size; luciferase read-out
Cruzain inh noDet – blocks cruzain activity in detergent-free assay. P25779. purified cruzain, Z-FR-AMC fluorescence, no detergent. Potency, µM, for inactives: max response, negative = inhibition, hits mostly inhibitors. 200,000 tested, 2.3% active. AID 1476; active = well fitted curve in the direction sought with a large enough effect; inconclusive = small, poorly fitted or top-dose-only effect, or another doubt; inactive = no such curve, though single readings can be large; an effect the other way counts as inactive or inconclusive;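 note: plate controls were enzyme without inhibitor for no effect and buffer without enzyme for full effect; nearly all actives have a fitted effect of over 40% in size; top concentration of the series not given in the record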
Target sequence (P25779 123-467 limits assumed): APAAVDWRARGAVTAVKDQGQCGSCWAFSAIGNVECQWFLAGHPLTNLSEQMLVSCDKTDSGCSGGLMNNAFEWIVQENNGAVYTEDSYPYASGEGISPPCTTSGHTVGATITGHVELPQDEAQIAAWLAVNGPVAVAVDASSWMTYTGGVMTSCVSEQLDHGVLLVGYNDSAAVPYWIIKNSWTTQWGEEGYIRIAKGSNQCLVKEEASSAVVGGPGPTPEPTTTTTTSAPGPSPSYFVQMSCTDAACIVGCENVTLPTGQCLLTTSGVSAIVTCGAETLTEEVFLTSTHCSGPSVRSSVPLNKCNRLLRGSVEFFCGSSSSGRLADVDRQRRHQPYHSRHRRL
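Detergent-free condition (0.00005% Triton X-100) in acetate buffer pH 5.5 with DTT. 1.5 nM enzyme and compound were pre-mixed 15 min, then 2 uM Z-FR-AMC substrate added; reaction progress from fluorescence change between first and third reads (60 s).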
StopGo reporter – lowers the luciferase signal of an FMDV 2A StopGo reporter. 410,000 tested, 1.2% active. human cells with a luciferase reporter of 2A StopGo recoding; control for the full effect not named in the record. Potency, µM (top dose mostly 57.9 µM), for the others: at the highest dose signal change, negative = less light; active = well fitted falling curve with a large enough effect; inconclusive = small, poorly fitted or top-dose-only effect; inactive = no such curve, though single readings can be large or run the other way; tested in HEK293T cells; note: % is set by controls: 0 for no effect and ±100 for the full control effect; nearly all actives have a fitted effect of over 45% in size; luciferase light after 4 h
Cruzain inh Det – cruzain (T. cruzi) inhibition with detergent; purified cruzain, Z-FR-AMC fluorescence, 0.01% Triton; Potency, µM, inactives show max response, negative = inhibition, actives largely listed as inhibitors; 200,000 tested, 0.43% active; AID 1478; active = well fitted curve in the direction sought with a large enough effect; inconclusive = small, poorly fitted or top-dose-only effect, or another doubt; inactive = no such curve, though single readings can be large; an effect the other way counts as inactive or inconclusive;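 note: plate controls were neutral wells for no effect and buffer without enzyme for full effect; nearly all actives have a fitted effect of over 40% in size; top concentration of the series not given in the record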
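Steps: dispense cruzain (1.5 nM final) in acetate buffer pH 5.5 with DTT and 0.01% Triton X-100; pin-transfer compounds; incubate 15 min RT; add Z-FR-AMC (2 uM final); read fluorescence every 30 s, using the 60 s intensity change.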
MARV entry inh – blocks Marburg virus binding to or entry into cells; 300,000 tested, 1.8% active; Potency, µM (highest dose often 37.8 µM), for the others: at the top dose activity change, negative = inhibition, hits mostly inhibitors; Marburg virus pseudotyped entry inhibition, cell reporter; control for the full effect not named in the record; about a third of the inactives were read at about 46 µM; AID 540276; active = well fitted inhibition curve with a large enough effect; inconclusive = small, poorly fitted or top-dose-only effect, or effect the other way; inactive = flat fitted curve, though single readings scatter; tested in HEK293 cells; about a fifth of its hits are not listed in these tables; note: % is set by controls: 0 for no effect and ±100 for the full control effect; luciferase read-out
* marks the source's active call; other numbers are inactive results; ? = inconclusive; / = no result given; [ ] = dose if it differs, or a comment. Unless noted, calls come from the whole dose curve; as a rule, active means well fitted rising curve with a large enough effect; inconclusive means small, poorly fitted or top-dose-only effect; inactive means no such curve, though single readings can be large or run the other way. Potency is the fitted concentration of half-maximal effect.

SMILES	SARS PLpro yeast	RE007 growth inh	NS1 inh	LASV entry inh	Cruzain inh noDet	StopGo reporter	Cruzain inh Det	MARV entry inh
CCOc1ccc(C(=O)N(CN2CCCC2=O)c2cccc(Cl)c2)cc1	-5%	3%	/	-13%	/	-20%	/	-9%[46.1 µM]
O=C(Nc1ncccc1O)c1cccc(S(=O)(=O)N2CCN(c3ccc(F)cc3)CC2)c1	-7%	?	/	-2%	/	-20%	/	-1%
O=C(c1nc2ncccn2n1)N1CCc2ccccc2C1	/	11%	-3%	1%	-1%	0%	5.7%	1%
Cc1nnc(SCC(=O)Nc2ccccc2)n(N)c1=O	2%	0%	/	-1%	/	12%	/	11%[46.1 µM]
COC(=O)c1c(NC(=O)c2cccc(S(=O)(=O)N3CCN(C)CC3)c2)sc(C)c1C	9%	-8%	/	33%	/	-2%	/	?
Cc1ccc2nc(-c3ccccc3C)oc(=O)c2c1	1%	0%	-19%	26%[46.1 µM]	/	11%	/	1%[46.1 µM]
COc1cc2[nH]c(=S)nc(NCc3cccc(Cl)c3)c2cc1OC	0%	-10%	-1%	/	/	43%[activator]	/	/
CC1CC(C)CN(c2ccc(NS(=O)(=O)c3ccccc3)cc2C(=O)O)C1 (stereo not given)	17%	7%	9%	/	/	4%	/	/
CCCN(CCC)c1ccc(C2N=C(N)Nc3nc4ccccc4n32)cc1 (stereo not given)	/	/	/	9%[46.1 µM]	-8%	-5%	-0.3%	-3%[46.1 µM]
CCCCn1nnnc1SCC(=O)N1CCCC1	-1%	11%	-1%	-1%	-5%	5%	4.1%	1%
CC(C)Cc1nnc(NC(=O)CCC(=O)N2CCN(c3ccc([N+](=O)[O-])cc3)CC2)s1	1%	0%	0%	/	/	?	/	/
Cc1nc2ccccc2n1CCN1CCOCC1	8%	-15%	/	-15%[46.1 µM]	/	-9%	/	4%[46.1 µM]
CC(=O)c1ccc([C@@H]2C[C@]34CN(Cc5cccc(C(F)(F)F)c5)S(=O)(=O)[C@H]3C[C@H]2O4)cc1	0%	6%	11%	/	/	?	/	/
COc1cc(OC)c2c(-c3cccc(-c4ccc(OC(F)(F)F)cc4)c3)cc(=O)oc2c1	8%	0%	/	/	?	-22%	-2.5%	/
CC(C)N(C(=O)CCl)c1ccccc1	/	3%	/	/	-1%	?	4.2%	/
Cc1ccc(S(=O)(=O)NCCCCCC(=O)N(C)C)cc1	0%	-14%	8%	-7%	-5%	3%	1.3%	-6%
CC(=O)NC1C(c2nc3ccccc3s2)=C(c2ccccc2)C(=O)N1c1ccc(C)cc1 (stereo not given)	0%	-11%	16%	-12%	-25%	59%[activator]	-2.1%	-9%
Cc1ccc(OCCN(C)C(=O)c2cc(COc3ccc(F)cc3F)on2)cc1	-6%	-34%	0%	-2%	/	13%	/	22%
CCOC(=O)c1c(NC(=O)/C(C#N)=C/c2ccc(OC)cc2)sc2c1CCC2	/	/	/	2%[46.1 µM]	10%	-4%	2.3%	/
CC(C)CCn1c(=O)c2ccccc2n2c(CN3CCOCC3)nnc12	-3%	-14%	/	-4%[46.1 µM]	/	-4%	/	-14%[46.1 µM]
CCOC(=O)C1C(=O)NC(C(=O)OCC)(C(=O)OCC)C1C(C)CC (stereo not given)	/	8%	/	-6%[46.1 µM]	/	6%	/	2%[46.1 µM]
O=c1c2c3c(sc2n(Cc2cc(=O)n4ccccc4n2)c(=O)n1-c1ccccc1)CCC3	/	/	/	26%[46.1 µM]	8%	-20%	-2.3%	6%[46.1 µM]
Cn1c(SCC(=O)NCc2ccco2)nc2ccccc2c1=O	-3%	-4%	-18%	13%	3%	-13%	-2.6%	10%
Cc1cc(S(=O)(=O)N2CCCC2)ccc1OCC(=O)NCc1ccccn1	-2%	-6%	-5%	0%	/	-10%	/	-12%[46.1 µM]
O=C(NCCc1c[nH]c2ccccc12)c1cc(S(=O)(=O)N2CCCCC2)ccc1N1CCOCC1	7%	8%	-30%	-12%	19%	-8%	-0.4%	-26%
O=C(O)c1ccc(CSCc2ccccc2F)o1	5%	0%	-2%	9%	-15%	-15%	5.9%	?
Cc1cc(NC(=O)COC(=O)CCCOc2ccc(Cl)cc2C)no1	-1%	15%	-8%	2%	-22%	12%	-1.0%	-11%[46.1 µM]
COc1cc(C(=O)NC2CC3CCCC(C2)N3CC(=O)Nc2ccccc2)cc(OC)c1OC (stereo not given)	10%	8%	-13%	-1%	1%	-11%	-2.2%	?
CN(C)S(=O)(=O)c1ccc(N2CCCC2)c(C(=O)NCCc2ccc(F)cc2)c1	-2%	-15%	5%	-10%	/	-4%	/	-21%
COC(=O)CSc1nnc(SCc2ccc(Cl)cc2)s1	14%	-12%	2%	4%	7%	-23%	1.2%	?
Cc1cccc(CCNC(=O)C2CCC(=O)N2Cc2ccc(F)cc2)c1 (stereo not given)	7%	-5%	7%	26%	2%	-15%	1.2%	-6%
COc1ccc(OC)c(C2CC(=O)Nc3c2c(=O)[nH]c2nc4ccccc4n32)c1 (stereo not given)	/	/	/	6%[46.1 µM]	11%	-20%	1.4%	0%[46.1 µM]
COc1ccc(NC(=O)C2CCN(S(=O)(=O)c3ccc(N4CCCC4=O)cc3)CC2)c(OC)c1	4%	0%	8%	-11%[46.1 µM]	/	-7%	/	12%[46.1 µM]
CCC(C(=O)NCc1ccncc1)c1ccccc1 (stereo not given)	0%	-11%	1%	-1%[46.1 µM]	/	3%	/	?
CCC1CCCCN1C(=O)COc1cc(=O)n(C)c2ccccc12 (stereo not given)	9%	-7%	?	/	6%	-25%	-1.4%	/
Cc1ccccc1Cn1c(O)c(N=NC(=S)Nc2ccccc2F)c2ccccc21	-4%	6%	/	?	/	-8%	/	?
COC(=O)c1cc(OC)c(OC)cc1NC(=S)N1CCCCC1	3%	-17%	-68%	19%	0%	-3%	3.4%	-12%
CCn1c(C)c(CS(=O)(=O)c2ccccc2)[nH]c1=O	1%	-2%	-2%	-7%[46.1 µM]	/	-1%	/	?
Cc1ccc(C(=O)Nc2c(N)nc(SCC(=O)NCC3CCCO3)[nH]c2=O)cc1 (stereo not given)	0%	-27%	-3%	-13%	/	-11%	/	-7%
Cc1cc(NC(=O)CSc2nnc(-c3ccco3)n2Cc2ccccc2)no1	9%	-20%	-5%	-3%	-3%	-18%	-1.6%	-15%
COc1cccc(CNC(=O)CSc2ccc(-c3ccccn3)nn2)c1	26%	2%	/	?	/	-5%	/	-5%[46.1 µM]
CC(C)NC(=O)NS(=O)(=O)c1cnccc1NC1CC2CCC1C2 (stereo not given)	-6%	-5%	-25%	9%	4%	-1%	-3.3%	-5%
C/C(=N\NC(=O)c1ccc(N/N=C(\C)c2ccc(O)cc2)cc1)c1ccc(O)cc1	-2%	-13%	17%	/	/	-2%	/	/
Cc1ccc(-n2nc(C(=O)N3CCN(c4ccc(F)cc4)CC3)c(=O)n(C)c2=O)cc1	/	/	/	-14%[46.1 µM]	11%	-16%	-1.9%	/
O=C(NCCN1CCOCC1)c1cc(-c2cccs2)nc2ccccc12	/	1%	/	-3%	/	-11%	/	-10%

Compounds from the list above that contain a Cl atom:
SMILES	SARS PLpro yeast	RE007 growth inh	NS1 inh	LASV entry inh	Cruzain inh noDet	StopGo reporter	Cruzain inh Det	MARV entry inh
CCOc1ccc(C(=O)N(CN2CCCC2=O)c2cccc(Cl)c2)cc1	-5%	3%	/	-13%	/	-20%	/	-9%[46.1 µM]
COc1cc2[nH]c(=S)nc(NCc3cccc(Cl)c3)c2cc1OC	0%	-10%	-1%	/	/	43%[activator]	/	/
CC(C)N(C(=O)CCl)c1ccccc1	/	3%	/	/	-1%	?	4.2%	/
Cc1cc(NC(=O)COC(=O)CCCOc2ccc(Cl)cc2C)no1	-1%	15%	-8%	2%	-22%	12%	-1.0%	-11%[46.1 µM]
COC(=O)CSc1nnc(SCc2ccc(Cl)cc2)s1	14%	-12%	2%	4%	7%	-23%	1.2%	?

The listing continues.
SMILES	SARS PLpro yeast	RE007 growth inh	NS1 inh	LASV entry inh	Cruzain inh noDet	StopGo reporter	Cruzain inh Det	MARV entry inh
COc1cccc(CN2CC(C(=O)NC3(c4ccccc4)CC3)CCC2=O)c1 (stereo not given)	18%	-19%	21%	10%	/	7%	/	13%
O=C(O)c1cnn2c1NC(c1ccc(F)cc1)CC2C(F)(F)F (stereo not given)	3%	-3%	15%	7%	2%	2%	5.4%	?
CCN1CCN(C(=O)CCc2nc3ccccc3c(=O)[nH]2)CC1	4%	10%	-8%	2%	1%	14%	1.4%	2%[46.1 µM]
O=S(=O)(Nc1cccc(-c2cn3cccnc3n2)c1)c1ccc(-c2ccccc2)cc1	-1%	0%	11µM*	10%	?	0%	-9.7%	-20%
O=C(COC(=O)c1cccnc1Cl)NCC1CCCO1 (stereo not given)	1%	2%	/	?	/	2%	/	14%
C/C(=C\c1ccccc1)CN(C)CCN(C)C	-5%	/	7%	/	-9%	/	3.9%	5%
Cc1cc(C)c2c(=O)cc(CSc3nnc(-c4ccccc4)n3C)[nH]c2c1	/	/	/	18%[46.1 µM]	0%	?	-0.1%	/
COc1ccc(CCNC(=O)c2cnn(-c3ccc(F)cc3)c2C2CCN(C(=O)OC(C)(C)C)CC2)c(OC)c1	/	/	/	?	12%	0%	-8.7%	/
Cc1cc(NC(=O)CSc2ccc3nnc(-c4ccccc4)n3n2)no1	-6%	-4%	0%	?	4%	17%	2.8%	-1%
CCn1c(SCC(=O)Nc2ccc(OCc3ccccc3)cc2)nnc1-c1ccco1	3%	11%	-102%	?	?	-29%	-7.1%	-59%
Nc1nc(-c2ccccc2)c(-c2ccccc2)n1N	2%	-6%	5%	/	/	4%	/	/
